Assay outcomes from PubChem BioAssay.
KCNQ2 enhance – enhances the rat KCNQ2 potassium channel. B-score at 10 µM. hit rate 0.54% among 310,000. O88943. CHO-K1 KCNQ2, FluxOR thallium flux fluorescence; hits give high values;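 active = fluorescence ratio B-score at least 3 SD of library B-scores, with initial fluorescence B-score within 3 SD, cut at about 5.3 in these data; same plate scores as AID 2156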;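 also: B-score of peak minus minimum over baseline fluorescence ratio after K+ and Tl+ stimulus; positive B-score means potentiation of KCNQ2 with more thallium influx and brighter signal; only the inactives scoring about 0 or higher are listed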
Target sequence (O88943 whole entry, looked up): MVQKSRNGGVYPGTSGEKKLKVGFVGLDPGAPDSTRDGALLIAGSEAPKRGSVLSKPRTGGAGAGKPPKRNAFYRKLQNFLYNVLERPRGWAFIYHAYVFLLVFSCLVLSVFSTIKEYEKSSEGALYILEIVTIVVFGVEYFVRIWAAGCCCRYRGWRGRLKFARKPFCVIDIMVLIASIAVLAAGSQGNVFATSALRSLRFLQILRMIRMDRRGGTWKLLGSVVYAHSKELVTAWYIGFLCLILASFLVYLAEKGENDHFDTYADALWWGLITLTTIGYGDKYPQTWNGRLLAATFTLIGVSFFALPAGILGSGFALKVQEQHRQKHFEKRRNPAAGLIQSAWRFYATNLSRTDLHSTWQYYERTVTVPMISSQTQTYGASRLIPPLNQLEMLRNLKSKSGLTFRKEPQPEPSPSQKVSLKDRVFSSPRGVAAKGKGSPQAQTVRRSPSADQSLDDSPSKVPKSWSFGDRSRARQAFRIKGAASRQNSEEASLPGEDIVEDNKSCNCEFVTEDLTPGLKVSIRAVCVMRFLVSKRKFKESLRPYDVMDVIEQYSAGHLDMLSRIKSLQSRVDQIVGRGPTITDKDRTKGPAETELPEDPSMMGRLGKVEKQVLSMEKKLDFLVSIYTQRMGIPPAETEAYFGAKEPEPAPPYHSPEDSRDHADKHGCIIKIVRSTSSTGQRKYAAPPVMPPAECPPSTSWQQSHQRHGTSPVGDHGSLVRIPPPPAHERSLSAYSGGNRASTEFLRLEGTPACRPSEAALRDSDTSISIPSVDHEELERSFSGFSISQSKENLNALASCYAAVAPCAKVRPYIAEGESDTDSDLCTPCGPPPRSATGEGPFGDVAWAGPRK
KCNQ2 enhance baseline – recorded beside KCNQ2 enhance, whose call it bears; B-score; compound at 10 µM; measured here: initial fluorescence intensity artifact check;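 brightness before thallium and not channel activity; 0 = typical well and far values either way flag optical interference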
* = called active by the depositor. Only part of the results is shown. The share of hits here may be higher or lower than overall.

Preview (five entries):
Compound | KCNQ2 enhance | KCNQ2 enhance baseline
CCOC(=O)N1CCN(C(=O)c2noc(C(C)C)c2[N+](=O)[O-])CC1 | 0.18 | 0.89
Cc1ccc(C)c(CN2C(=O)C3CCCN3c3ccc(C#N)cc32)c1 (configuration not stated) | 0.02 | -2.1
Nc1cc(C(=O)OCC(=O)NNC(=O)c2cccs2)ccc1Cl | 1 | -0.59
CCOC(=O)Nc1c(O)ccc2oc(C)c(-c3ccccc3)c12 | 3.3 | -0.17
O=C(CSCc1ccccc1)Nc1ccc(F)c(F)c1 | 0.56 | -0.71

The list itself, repeating the preview:
Compound | KCNQ2 enhance | KCNQ2 enhance baseline
CCOC(=O)N1CCN(C(=O)c2noc(C(C)C)c2[N+](=O)[O-])CC1 | 0.18 | 0.89
Cc1ccc(C)c(CN2C(=O)C3CCCN3c3ccc(C#N)cc32)c1 (configuration not stated) | 0.02 | -2.1
Nc1cc(C(=O)OCC(=O)NNC(=O)c2cccs2)ccc1Cl | 1 | -0.59
CCOC(=O)Nc1c(O)ccc2oc(C)c(-c3ccccc3)c12 | 3.3 | -0.17
O=C(CSCc1ccccc1)Nc1ccc(F)c(F)c1 | 0.56 | -0.71
O=C1c2ccccc2C(=O)N1CCOc1cccc(Br)c1 | 1.3 | 0.02
CCn1c(CCNC(=O)c2ccc(F)cc2)nc2ccccc21 | 0.89 | -0.59
CSc1nnc(-c2cccc(C)c2)n1N | 1.2 | -0.09
COc1cc(/C=N/NC(=O)C(Cc2c[nH]c3ccccc23)NC(=O)OCC(C)C)cc([N+](=O)[O-])c1O (configuration not stated) | 0.09 | -0.04
CCOC(=O)C1(Cc2ccc(OC)cc2)CCN(S(C)(=O)=O)CC1 | 0.46 | 0.11
CCC(Sc1nc(C)cc(=O)[nH]1)C(=O)Nc1nc2c(s1)CCCC2 (configuration not stated) | 0.71 | -0.49
CSc1nnc(C(C)c2ncc(C(F)(F)F)cc2Cl)n1C (configuration not stated) | 0.91 | 0.22
O=C(COC(=O)c1ccc(NS(=O)(=O)c2cccs2)cc1O)Nc1nc2ccccc2s1 | 2.4 | -1.9
Cc1cc(NC(=O)CSc2nc(-c3ccccc3)nc3c2c(=O)n(C)c(=O)n3C)no1 | 0.03 | 0.55
C=CCn1c(C(C)NC(=O)COC)nc2ccccc21 (configuration not stated) | 1.1 | -0.44
Cc1nc(N2CCN(c3ccccc3F)CC2)[nH]c(=O)c1C | 1.6 | -2.1
CC1CCCCN1C(=O)CNCc1ccc(F)cc1 (configuration not stated) | 0.68 | -1
Cc1cccn2cc(CCNS(=O)(=O)c3ccc([N+](=O)[O-])cc3)nc12 | 0.54 | 0.01
Cn1cnnc1SCC(=O)Nc1nc(-c2ccccc2)cs1 | 0.87 | 1.4
COc1ccc(C(=O)N2CCCC2(C#N)c2ccccc2)cc1[N+](=O)[O-] (configuration not stated) | 0.78 | 0.8

A draw from above in order of length of the SMILES, largest number first.
Compound | KCNQ2 enhance | KCNQ2 enhance baseline
Nc1cc(C(=O)OCC(=O)NNC(=O)c2cccs2)ccc1Cl | 1 | -0.59
Cc1nc(N2CCN(c3ccccc3F)CC2)[nH]c(=O)c1C | 1.6 | -2.1
C=CCn1c(C(C)NC(=O)COC)nc2ccccc21 (configuration not stated) | 1.1 | -0.44

(more compounds)
Compound | KCNQ2 enhance | KCNQ2 enhance baseline
COc1ccc(N2CCN(C(=O)c3ccc(-c4ccccc4)cc3)CC2)cc1 | 0.08 | 1.1
CNC(=O)c1cccc(NC(=O)CCCNC(=O)c2ccc(Cl)cc2)c1 | 1.3 | -0.03
CCOCCCNC(=O)CN1C(=O)COc2ccc(S(=O)(=O)N3CCC(C)CC3)cc21 | 0.38 | 2.5
CCC1CCCCN1C(=O)c1cc(COc2ccc(-n3cncn3)cc2)on1 (configuration not stated) | 0.66 | 0.03
CC(=O)Nc1cccc(-c2nc3ccc(NC(C)=O)cc3s2)c1 | 1.5 | 0.33
Cc1ccc(OCCn2cc(/C=N/NC(=O)c3ccncc3)c3ccccc32)cc1 | 0.52 | -0.05
CCOC(=O)N1CCN(C(=O)c2ccc(Cl)nc2)CC1 | 0.05 | 1.2
COc1ccc(C(=O)O)cc1NCc1ccc(C)s1 | 1.1 | 1
CC1=Nc2cc(C(=O)NCC3CCCO3)ccc2Sc2ccc(Br)cc21 (configuration not stated) | 0.3 | -0.38
CCCCc1ccc(NC(=O)CSc2nnc(C)c(=O)n2N)cc1 | 0.01 | -0.12
O=C(O)c1cc2c(=O)c3ccccc3oc2nc1C(F)(F)F | 0.1 | -0.87
CC1CCCCC1n1c(-c2cccnc2)n[nH]c1=S (configuration not stated) | 1.1 | 0.34
CCN(CC)c1nc(N(CC)CC)[nH]c(=O)n1 | 0.11 | 0.53
CC(C)CC(=O)Nc1nnc(SCC(=O)NCC2CCCO2)s1 (configuration not stated) | 0.75 | -0.93
CCc1nnc(NC(=O)CSc2ccc(Cl)cc2)s1 | 0.25 | -0.74
Cc1oc2c(c1C(=O)NCc1ccccc1)CCCC2 | 0.04 | 1.1
COc1ccc(NC(=O)CN(c2c(C)cccc2C)S(C)(=O)=O)cc1 | 0.03 | -0.33
CCOC(=O)C1CCCN(C(=O)Cn2cccc2C(=O)c2ccccc2)C1 (configuration not stated) | 1.9 | 0.58
COC(=O)c1ccc(COC(=O)c2cc3ccccc3oc2=O)cc1 | 1.4 | 2.4
CCN1CCN(c2ccc(S(=O)(=O)N3CCCCC3)cc2NC(=O)c2ccc(C)o2)CC1 | 0.16 | -0.03
Cc1cnn(CCC(=O)NNC(=S)Nc2ccccc2)c1 | 0.19 | 3.2
COC(=O)Nc1ccc(S(=O)(=O)N2CCCC(C(=O)N3CCN(C)CC3)C2)cc1 (configuration not stated) | 1 | 1.6
C=CCOc1ccc(/C=C/C(=O)OCC(=O)N(C)CC(=O)Nc2ccccc2Cl)cc1 | 0.8 | -1.1
C1CN(c2nc(N3CCOCC3)nc(N3CCOCC3)n2)CCO1 | 2 | 0.98
O=S(=O)(N1CCCCCC1)N1CCN(S(=O)(=O)N2CCCCC2)CC1 | 0.04 | 0.01
CCOC(=O)C1(CCc2ccccc2)CCN(C(=O)CCn2cnnn2)CC1 | 0.49 | 1.8
CCOC(=O)N1CCN(C(=O)COCc2cc(-c3ccc4c(c3)OCO4)on2)CC1 | 0.58 | -0.34
NS(=O)(=O)c1ccc(CNC(=S)NC2CC2)cc1 | 0.03 | -1.5
COc1c(/C=N/Nc2ccc(C(=O)O)cc2)c(CCN(C)C(C)=O)cc2c1OCO2 | 0.06 | 0.95
CS(=O)(=O)N1CCN(C(=O)c2cc3ccccc3oc2=O)CC1 | 0.1 | 0.07
COc1cc(/C=C2\COC/C(=C\c3cc(OC)c(OC)c(OC)c3)C2=O)cc(OC)c1OC | 0.06 | 0.42
O=C(CSc1c[nH]c2ccccc12)N1CCCc2ccccc21 | 0.94 | -0.05
Cc1ccc(N2C(S)=C(C#N)C(=O)NC2c2cccs2)cc1 (configuration not stated) | 2.1 | -1.4
C=CCn1c(C(CCCC)CC(O)COCCC)n[nH]c1=S (configuration not stated) | 1.7 | -0.42
CC(=O)NCCn1c(SCc2cc(=O)n3cc(Cl)ccc3n2)nc2ccccc2c1=O | 2.5 | -1.9
CCc1ccc(N(CC(=O)N2CCN(Cc3ccccc3)CC2)S(C)(=O)=O)cc1 | 0.3 | 0.19
CCCC(C)n1[nH]c(=O)c2c(C)cc(C)nc21 (configuration not stated) | 0.56 | -0.61
CC(OC(=O)CC1Sc2ccccc2NC1=O)C(=O)NC1CCCC1 (configuration not stated) | 0.15 | 4.3
O=C(Cn1ncc2c(=O)oc3ccccc3c21)N1CCN(C(=O)c2ccco2)CC1 | 0.28 | 0.03
O=c1c2ccccc2sn1-c1cc(S(=O)(=O)N2CCOCC2)ccc1N1CCCC1 | 0.15 | 0.86
COc1ccc(S(=O)(=O)N2Cc3ccccc3CC2C(=O)Nc2nccs2)cc1 (configuration not stated) | 1.6 | -0.43
CCOc1ccc(S(=O)(=O)N2CCN(C(=O)C3CCC3)CC2)cc1 | 0.02 | 1.8
Clc1ccc2noc(-c3ccccc3)c2c1 | 0.09 | 0.38
Cc1cc(=O)n2nc(N3CCCC(C(=O)NC4CCC(C)CC4)C3)sc2n1 (configuration not stated) | 0.03 | 2.1
COc1ccc(/C=C(\C#N)C(=O)Nc2cccnc2)cc1 | 2.1 | -0.15
CN(C)C(=O)c1snnc1-c1ccccc1 | 0.49 | 0.05
Fc1ccc(CNC(=S)Nc2ccc(Cl)cc2Cl)cc1 | 0.31 | -0.03
Cc1noc(C)c1C(=O)Nc1ccccc1C(=O)NCCc1ccccc1 | 1.1 | 0.08
Fc1ccc(-n2cc(-c3ccccc3)[n+]3c2SCC3)cc1 | 0.49 | -1.4
Cc1c(C(=O)NCc2ccco2)oc2ccc(S(=O)(=O)N3CCC4(CC3)OCCO4)cc12 | 0.46 | -0.14
CSCCC(NS(=O)(=O)c1cccs1)C(=O)NCc1ccccc1 (configuration not stated) | 3.2 | -0.13
C[C@@H](C(=O)N[C@@H](Cc1ccccc1)C(=O)O)n1nnc2ccccc2c1=O | 1.3 | -1
CC(C)COc1ccc(-c2nnc(-c3ccncc3)o2)cc1 | 0.15 | 2.4
Oc1ccc(C[C@@H]2CNCCN2CC2CCCCC2)cc1 | 0.14 | 1.9
COc1cc(NC(=O)Nc2c(C)n(C)n(-c3ccccc3)c2=O)cc(OC)c1OC | 0.32 | -0.3
COc1cccc(CNC(=O)CCn2c(=O)oc3ccccc32)c1 | 0.85 | -0.02
CC(C)C12CN3CC(C(C)C)(CN(C1)C3c1ccco1)C2=O (configuration not stated) | 0.16 | 2.9
O=C(NCCCCNC(=O)c1ccc(Br)s1)c1ccc(Br)s1 | 0.24 | 2.2
CC(C)(C)c1nnc(NC(=O)CCS(=O)(=O)c2ccccc2)s1 | 0.19 | -0.01
COC(=O)C1=C(C)NC(=O)NC1c1ccc(-c2ccc(F)cc2)o1 (configuration not stated) | 1.2 | -0.31

Shown with each value named: 2 of the compounds above.
> O=c1c2ccccc2sn1-c1cc(S(=O)(=O)N2CCOCC2)ccc1N1CCCC1
  KCNQ2 enhance: 0.15; KCNQ2 enhance baseline: 0.86

> Cc1ccc(OCCn2cc(/C=N/NC(=O)c3ccncc3)c3ccccc32)cc1
  KCNQ2 enhance: 0.52; KCNQ2 enhance baseline: -0.05

Continuation.
Compound | KCNQ2 enhance | KCNQ2 enhance baseline
O=C(O)c1ccc2c(c1)S(=O)(=O)c1ccccc1C2=O | 0.29 | 0.41
COC(=O)C(C)N1CCC(=O)c2ccccc2S1(=O)=O (configuration not stated) | 1 | 0.97
Cn1c(-c2sc3cc(C(F)(F)F)cnc3c2-c2cccs2)n[nH]c1=S | 0.33 | -1.5
COc1ccc(/C=C2/CCOC2=O)cc1 | 0.61 | 0.04
COc1ccc(-n2nnnc2SCC(=O)NCc2ccco2)cc1OC | 1.2 | 1.3
O=C(Cn1nc(C(=O)O)c2ccccc2c1=O)Nc1ccc(Br)cc1 | 0.4 | -0.47
COc1ccc(C(=O)/C=C/Nc2c(C)n(C)n(-c3ccccc3)c2=O)c(OC)c1 | 0.13 | 0.02
CC(NC(=S)Nc1ccccc1C(F)(F)F)C1CC2CCC1C2 (configuration not stated) | 0.05 | -0.74
CC(C)Cn1c(SCC(=O)N(C)C2CCS(=O)(=O)C2)nc2cc(Cl)ccc2c1=O (configuration not stated) | 0.94 | 0.35
O=S(=O)(N1CCOCC1)N1CCN(c2ccc(F)cc2)CC1 | 0.64 | -0.01
CNCCCOc1cccc(Oc2ccccc2)c1 | 1.3 | -0.09
O=C(NC1CCS(=O)(=O)C1)c1cccnc1 (configuration not stated) | 0.01 | 0.02
CC(C)c1cccc(C(C)C)c1NC(=O)c1ccccc1 | 0.16 | -1.9
O=C1NCCN(C(=O)CCc2nnc(-c3ccsc3)o2)C1c1ccc(F)cc1 (configuration not stated) | 1.1 | 4
CCOc1ccc2[nH]c(=O)c(CN(CCO)C(=O)c3ccc(OC)c(OC)c3)cc2c1 | 1.4 | 0.02
COc1ccc(N2CCN(C(CNC(=O)C(=O)NCc3ccncc3)c3ccco3)CC2)cc1 (configuration not stated) | 0.42 | -0.23
CC(C)CC(=O)NC(NC(=O)CC(C)C)c1cccc([N+](=O)[O-])c1 | 0.09 | -1.1
CC(C)N1CCC(N2CCN(Cc3cccc4nonc34)CC2CCO)CC1 (configuration not stated) | 0.69 | 3
O=C(NC1CCN(Cc2ccccc2)CC1)c1cc(Br)c(Br)[nH]1 | 1.2 | -0.1
Cc1ccccc1Nc1nc(N)nc(CSc2nnc3ccccn23)n1 | 0.48 | 2
CC(C)(C)OC(=O)[C@H](Cc1ccccc1)NC(=O)c1nc[nH]c1C(=O)NCCCCCN | 0.8 | 0.27
CCN(C(=O)CSc1nc2ccccc2c(=O)n1-c1cccc(C)c1)C1CCS(=O)(=O)C1 (configuration not stated) | 0.89 | 0.79
COCCCNC(=S)N1CCN(c2nc3ccccc3s2)CC1 | 2 | 0.59
Cc1ccc(S(=O)(=O)NCC(C)NC(=O)CN2CCOCC2)cc1 (configuration not stated) | 0.95 | 0.87
CC(=O)Nc1cccc(NC(=O)C(C)N2c3cccc4cccc(c34)S2(=O)=O)c1 (configuration not stated) | 0.02 | 0.67
Cc1cc(O)ccc1C1(c2ccc(O)cc2C)OC(=O)c2ccccc21 | 1.3 | -0.8
CC1=CC(C)(C)N(C(=O)CN2C(=O)c3ccccc3C2=O)c2ccc(C)cc21 | 0.04 | -1.8
O=C(Nc1ccon1)c1cc2c(s1)CCCCCC2 | 1.5 | -1.3
C=CCOC(=O)C1=C(C)OC(N)=C(C#N)C1c1ccco1 (configuration not stated) | 0.57 | -1.2
O=C(NCC1CCCO1)c1ccc(COc2ccccc2)o1 (configuration not stated) | 2.2 | -2
O=C(CSc1nccn1Cc1ccco1)Nc1ccccc1 | 0.05 | 1.1
NC(N)=Nc1nc(-c2ccccc2)c2cc(F)ccc2n1 | 0.97 | 0.73
COc1ccc(CNC(=O)c2ccc3c(=O)n(CCCN4CCCC4=O)c(=S)[nH]c3c2)cc1 | 2.9 | -0.64
CCN(CC)S(=O)(=O)c1cccc(N=NC2=C(O)CCCC2=O)c1 | 1.5 | -1.3
